Screening results as filed in PubChem BioAssay.
CtBP-E1A inh: CtBP/E1A binding inhibition; AlphaScreen GST-E1A/His-CtBP binding, 1536-well; active compounds read low; control for the full effect not named in the record; activity change, % (no concentration beside the values); hit rate 0.49% among 340,000; in the data active means activity change below about -65%; inconclusive means about -30% to -65%; inactive means above about -30%; note: % is set by controls: 0 for no effect and ±100 for the full control effect
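Protein mix (5X: 125 nM each GST-E1A, His-CtBP) was incubated with pinned compound 2 h at 37 deg C in dark, in 50 mM Tris pH 8.0 buffer with 300 mM NaCl. Glutathione donor and nickel acceptor beads followed; AlphaScreen signal read after 1 h.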
Six1-Eya2 blk: inhibitors of human Six1/Eya2 interaction. hit rate 0.56% among 360,000. AlphaScreen GST-Six1/His-Eya2 binding, biochemical; active compounds read low; control for the full effect not named in the record. activity change, % (concentration not given with the values). Q15475+O00167; in the data active = activity change below about -65%; inconclusive = about -30% to -65%; inactive = above about -30%; note: % is set by controls: 0 for no effect and ±100 for the full control effect
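Six1/Eya2 binding was read as AlphaScreen signal after compounds were pinned into GST-Six1 plus His-tagged Eya2 (5X stock 250/500 nM) in pH 8.0 Tris/NaCl/TCEP buffer, beads added, then incubated 1 h, 37 C, dark.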
TRPML1 ag: activates the human TRPML1 channel. TRPML1-expressing cells, Ca2+ dye fluorescence, FDSS; host cell line not named in the record; reference of the full effect not given here. hit rate 0.12% among 410,000. Q9GZU1. AID 624414. activation, % (test concentration not listed); in the data active = activation above about 50%; inconclusive = about 30% to 50%; inactive = below about 30%; note: 0% is about no effect; the text of the record puts the active cut at 80%
Target sequence (Q9GZU1 whole entry, looked up): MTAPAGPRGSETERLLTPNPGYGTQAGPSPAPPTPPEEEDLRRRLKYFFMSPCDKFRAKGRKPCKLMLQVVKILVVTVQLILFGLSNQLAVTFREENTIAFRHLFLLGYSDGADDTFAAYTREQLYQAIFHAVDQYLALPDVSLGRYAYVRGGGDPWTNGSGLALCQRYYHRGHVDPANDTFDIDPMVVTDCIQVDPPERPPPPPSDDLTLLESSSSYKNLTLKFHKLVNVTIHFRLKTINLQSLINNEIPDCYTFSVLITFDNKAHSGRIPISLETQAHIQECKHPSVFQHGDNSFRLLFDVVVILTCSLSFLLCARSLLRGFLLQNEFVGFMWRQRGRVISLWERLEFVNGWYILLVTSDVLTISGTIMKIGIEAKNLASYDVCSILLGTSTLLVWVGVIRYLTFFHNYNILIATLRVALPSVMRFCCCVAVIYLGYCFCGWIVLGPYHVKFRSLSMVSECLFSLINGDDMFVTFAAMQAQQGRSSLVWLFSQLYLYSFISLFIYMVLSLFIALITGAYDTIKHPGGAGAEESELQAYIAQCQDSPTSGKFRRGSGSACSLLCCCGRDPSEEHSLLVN
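In this qHTS format, compounds were pin-transferred onto Ca8-dye-loaded TRPML1-DL cells induced with Tet overnight, and intracellular Ca2+ fluorescence was recorded kinetically for 110 s after a 10 s baseline. A subsequent 4uM final 54-4 (EC80) addition followed by a second 110 s read served as the antagonist phase.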
TRPML1 inh: blocks the human TRPML1 channel; activity change, negative = inhibition, % (concentration not given with the values); hit rate 0.02% among 390,000; AID 624415; TRPML1-inducible cells, Ca2+ dye fluorescence, FDSS; active compounds read low; inhibition of EC80 agonist-evoked calcium signal; in the data active means activity change below about -50%; inconclusive means about -30% to -50%; inactive means above about -30%;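 note: stimulus is agonist 54-4 at its EC80 concentration; % is set by controls: 0 for no effect and ±100 for the full control effect; the text of the record puts the active cut at -80%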
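Tet-induced TRPML1-DL cells loaded with Ca8 no-wash calcium dye were read kinetically on FDSS. Compound addition was followed by EC80 agonist 54-4 (4 uM final); inhibition was read over 110 s.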
D2 ag: activates the human D2 dopamine receptor | AID 624465 | P14416 | hit rate 0.084% among 360,000 | activation, % (concentration not given with the values) | DiscoveRx PathHunter D2 beta-arrestin, luminescence, 90 min; 100% = 57 uM dopamine signal; in the data active = activation above about 40%; inconclusive = about 15% to 40%; inactive = below about 15%; note: compound concentration not given in the record; the text of the record calls up to 30% inactive
Target sequence (P14416 whole entry, looked up): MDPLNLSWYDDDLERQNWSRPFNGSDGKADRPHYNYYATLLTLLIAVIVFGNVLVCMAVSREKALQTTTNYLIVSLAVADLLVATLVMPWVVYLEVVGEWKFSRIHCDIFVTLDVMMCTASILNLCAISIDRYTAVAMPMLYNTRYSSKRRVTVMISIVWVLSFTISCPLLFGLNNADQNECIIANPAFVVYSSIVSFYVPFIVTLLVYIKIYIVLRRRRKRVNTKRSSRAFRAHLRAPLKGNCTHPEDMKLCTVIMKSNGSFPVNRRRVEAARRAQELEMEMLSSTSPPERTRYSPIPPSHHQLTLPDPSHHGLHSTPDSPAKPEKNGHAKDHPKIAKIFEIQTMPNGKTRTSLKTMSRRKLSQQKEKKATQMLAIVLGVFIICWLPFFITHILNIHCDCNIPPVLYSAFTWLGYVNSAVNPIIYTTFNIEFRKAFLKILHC
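DiscoveRx PathHunter D2 beta-arrestin cells (2,100/well) attached overnight, then compound-stimulated 90 min at 37 C in HBSS/10 mM HEPES/0.1% Tween-20 buffer; beta-galactosidase complementation read by luminescence after 1 h at ambient temperature. Dopamine 57 uM final (EC100) as control.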
PINK1 modulator: modulators of PINK1 expression; PINK1 immunofluorescence, high-content cytometry, 24 h; Potency, µM (top dose mostly 76.6 µM), inactives show at the top dose activation (PINK1 increase), most hits filed as activators; hit rate 0.2% among 410,000; AID 624263; active = well fitted activation curve with a large enough effect; inconclusive = small, poorly fitted or top-dose-only effect; inactive = flat fitted curve, though single readings scatter; cell line not stated here;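 note: potency is the fitted concentration of half-maximal effect; % of control where 0% means no effect; nearly all actives have a fitted effect of over 65% in size; a mitochondrial uncoupler was the plate control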
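Cells are seeded, rested 12 hours, then given compound at five concentrations or DMSO for 24 hours. After fixation, blocking and antibody staining, PINK1 amount and mitochondrial localization are scored; CCCP serves as control.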
An asterisk follows results filed as active; ? = inconclusive; · = no result given; & = joins results of further samples; [ ] = dose if it differs, or a comment. No enrichment for hits; about 1% have a hit in one of these screens.

SMILES	CtBP-E1A inh	Six1-Eya2 blk	TRPML1 ag	TRPML1 inh	D2 ag	PINK1 modulator
CC(=O)Oc1ccccc1N1C(=O)c2ccc(C(=O)O)cc2C1=O	5	2	0.4	-22	-2.0	1.8%[38.3 µM]
O=S(=O)(c1cccc(COc2ccc(Cl)cc2Cl)c1)N1CCOCC1	15	6	3.3	61	-0.2	0.1%
Cn1c(CCNS(=O)(=O)c2ccc(F)cc2)nnc1SCc1cccnc1	-5	4	-0.2	-3	-2.1	2.8%
CN(CC(=O)Nc1cccc(F)c1)C(=O)CCc1nc2cc(S(=O)(=O)N3CCOCC3)ccc2n1C	-1	-6	0.7	24	-2.6	-0.3%
c1ccc(N=NN2CCOCC2)cc1	1	2	0.8	2	7.2	0.9%
COc1cc(CNC(=O)c2ccc3c(c2)S(=O)(=O)c2ccccc2C3=O)cc(OC)c1	·	-26	1.2	0	11	0.6%
O=C(CSc1ncnc2sc3c(c12)CCCCC3)NCc1ccco1	-6	-5	2.2	2	-1.1	2.1%
CCOC(=O)C1CCCCN1Cc1cn[nH]c1-c1ccc(F)cc1F (stereo not given)	·	1	0.8	-14	-3.0	0.2%
CC(C)c1c(C(=O)N/N=C/c2ccc(C(F)(F)F)cc2)nnn1-c1nonc1N	5	5	0.4	3	-8.0	9.2%
CC1(C(=O)Nc2cccc3cccnc23)CCN1Cc1cccc2c1OCO2 (stereo not given)	-10	-11	0.4	·	8.7	-1.2%
O=C(CCN1C(=O)/C(=C/c2ccc(F)cc2)SC1=S)NCCCn1ccnc1	·	2	1.1	11	4.0	1.7%
O=C(COC(=O)COc1ccc2ccccc2c1)NC1CCCc2ccccc21 (stereo not given)	2	-3	-0.5	-15	-6.1	1.9%
CNC(=S)NNC(=O)c1sccc1C	-13	2	-0.5	-12	-1.2	1.4%
COc1cccc(NC(=O)CSc2nc(-c3ccccc3)nc3c2Cc2cc(Cl)ccc2O3)c1	·	·	-0.7	-3	·	0.0%
C/C(=N\Nc1ccc([N+](=O)[O-])cc1[N+](=O)[O-])c1ccc(-n2nncc2C(C)(C)C)cc1	?	?	76*	-2	2.3	-0.3%
CNC(=O)C12N=CNN=C1N(C)C(=O)N2C (stereo not given)	5	7	-0.2	1	-3.5	1.2%
FC(F)(F)c1nc2ccccc2n2c(-c3ccc(Cl)cc3Cl)nnc12	-17	-1	2.3	-4	-2.5	-3.2%
COc1cc(/C=C/C(=O)N2CCN(c3n[nH]c(=O)[nH]c3=O)CC2)cc(OC)c1OC	0	-4	1.0	9	-2.3	-0.4%
Cc1cc(OCCCCCn2ccnc2)cc(C)c1Cl	-5	-9	-0.6	-14	6.9	13%
CC(C)(C)c1cc(CCC(=O)NN)cc(C(C)(C)C)c1O	-1	0	1.1	11	-2.4	-0.8%
CCN(CC)CCN(C(=O)c1ccccc1OC)c1nc2ccc(F)cc2s1	-1	-22	-0.3	8	0.6	9.1%
O=C(Nc1ccc(Cl)cc1)c1cc(-c2cccs2)on1	-2	2	-0.1	2	-14	2.0%
COC(=O)CCCC1=CC2=CC(=O)C(C)(OC(=O)c3cccs3)C(=O)C2=CN1C1CC1 (stereo not given)	-5	-2	2.7	-9	3.2	-1.5%
Cc1ccc(CCNC(=O)C2CCCN(S(=O)(=O)c3cnc[nH]3)C2)cc1 (stereo not given)	-11	7	0.0	-16	1.1	2.5%
CCCc1cc(=O)[nH]c(SCCOc2ccc(Cl)cc2)n1	0	-2	2.1	-18	2.8	7.8%[38.3 µM]

Later entries
SMILES	CtBP-E1A inh	Six1-Eya2 blk	TRPML1 ag	TRPML1 inh	D2 ag	PINK1 modulator
O=C(NCCc1cccc(F)c1)C1CCN(S(=O)(=O)c2ccccc2)CC1	·	5	0.1	-7	-5.3	1.7%
COc1cccc(N2CCN(c3ccc4nnc(CCC(=O)Nc5ccc(F)cc5)n4n3)CC2)c1	-10	-17	1.6	7	-0.8	1.1%
S=C1SCCCN1Cc1ccc(Cl)cc1	-12	5	-0.6	6	-0.9	-0.4%
COc1ccc(Nc2nc(N(C)c3ccccc3)nc(N)c2[N+](=O)[O-])cc1	-5	14	1.3	-8	-2.3	5.8%
CN(C)c1nc(Nc2ccc(Cl)cc2)nc(OCC#N)n1	-4	0	-0.2	5	-0.8	-1.9%
CS(=O)(=O)Nc1cccc(C(=O)OCCCOc2ccc(F)cc2)c1	3	3	3.2	19	9.0	4.5%
C=CCn1cc(C(=O)OC)c(=O)c2cc(S(=O)(=O)N(CC)CC)ccc21	13	0	0.0	-2	-0.1	·
CCC(CC)C(=O)N(C)c1c(C)nc2c(OCc3ccc(F)c(F)c3)cccn12	5	2	0.2	11	-2.4	3.7%
CS(=O)(=O)N1CCCC(C(=O)NCc2ccc(F)cc2Cl)C1 (stereo not given)	-1	2	-0.3	0	-4.1	3.0%[38.3 µM]
CCOC(=O)c1c(C)[nH]c(=S)c(C#N)c1-c1ccc(Cl)cc1	·	2	0.9	3	-4.6	-0.5%
FC(F)(F)c1cc(Cl)c2nc(-c3cccc(Cl)c3)c(Cc3cccc(Cl)c3)n2c1	9	1	1.9	·	·	8.5%
CC1(C)CC(O)(CCNCc2ccc3c(c2)OCO3)CCO1 (stereo not given)	4	7	-0.6	2	-1.8	-3.1%
COc1cccc(CC(=O)Nc2ccc3c(c2)c(=O)n(C)n3-c2ccc(C(C)(C)C)cc2)c1	-1	0	18	·	2.7	9.1%
Cc1ccccc1C(=O)N1CCN(c2ncnc3c2cnn3-c2ccccc2)CC1	-2	-7	-0.7	2	-1.5	4.5%
Cn1nc(C(=O)NNC(=O)c2ccc(Cl)cc2)ccc1=O	-17	8	0.6	28	1.0	-0.3%
CC1(c2nnc(-c3cccc(Cl)c3)o2)CC(c2ccc(Cl)cc2)=NO1 (stereo not given)	6	5	1.2	15	-1.2	1.9%
CCC1C(=O)c2ccccc2N(C)C1=O (stereo not given)	·	2	1.1	9	-4.8	2.6%
O=C(N/N=C/c1cc(Br)cs1)C(O)c1ccccc1 (stereo not given)	-1	-14	1.7	8	-3.0	1.0%
COc1ccc(-n2c(CNc3ccc(C)cc3)nnc2SCC(=O)Nc2nc(-c3ccccc3)cs2)cc1	1	-2	0.7	18	-1.4	?
COc1ccc([C@H]2CC(=O)C=C(c3ccc4ncccc4c3)C2)cc1	-20	-12	3.1	-21	2.2	0.2%
CC(NC(=O)CCNC(=O)N1CCn2c1nc1ccccc12)c1ccccc1 (stereo not given)	6	4	0.4	4	4.5	0.4%
CCOC(=O)c1c(C)[nH]c(C(=O)OCC(=O)Nc2cc(Cl)ccc2OC)c1C	13	1	1.2	7	-4.0	16%[38.3 µM]
O=C(Cc1cccc(NC(=O)C2CCN(C(=O)C3CCCCC3)CC2)c1)Nc1cccc(C(=O)N2CCOCC2)c1	-8	-11	0.4	-9	-1.8	-1.2%
Cc1ccc(S(=O)(=O)Nc2ccc(-c3cn4ccc(C)cc4n3)cc2)cc1	·	-13	-0.3	-20	7.4	2.2%
O=C(O)c1nc(-c2ccccc2)n(-c2cccc(C(F)(F)F)c2)n1	-19	?	-0.1	11	-2.0	1.1%

More entries.
SMILES	CtBP-E1A inh	Six1-Eya2 blk	TRPML1 ag	TRPML1 inh	D2 ag	PINK1 modulator
Cn1nc(C(=O)NCC2CCCO2)c2ccccc2c1=O (stereo not given)	41	0	0.1	-7	-0.1	-1.3%[38.3 µM]
CCn1c(SCC(=O)N2CCN(C(=O)c3ccco3)CC2)nnc1C(C)C	4	4	0.3	-3	-3.1	3.1%
O=C(O)c1ccccc1NC(=S)NC(NC(=O)c1ccccc1[N+](=O)[O-])C(Cl)(Cl)Cl (stereo not given)	6	-2	-1.0	1	-4.7	-0.1%
COc1ccc(N2C(=O)NC3CC2(C)Oc2ccccc23)cc1OC (stereo not given)	3	1	-0.6	6	1.6	8.8%
CCOC(=O)N1CCC(NC(=O)C(NS(=O)(=O)c2ccc3c(c2)CCN3C(C)=O)C(C)C)CC1 (stereo not given)	13	-11	0.2	-8	-4.6	-0.5%
O=C(CCC1CCCN(C(=O)c2ccoc2)C1)NCc1ccccc1F (stereo not given)	4	0	0.0	0	4.7	-1.0%
O=C(c1ccc(N2C(=O)CCC2=O)cc1)N1CCOCC1	10	7	0.9	-9	-1.4	·
O=C(N/N=C/c1ccncc1)C12CC3CC(CC(C3)C1)C2	3	-26	0.0	4	-4.1	4.3%
CCN(CC)S(=O)(=O)c1cc([N+](=O)[O-])ccc1NNC(=O)Nc1ccccc1OC	-13	-19	1.6	4	4.9	0.4%
O=C(Nc1nc2c(s1)CCCC2)c1cccc(S(=O)(=O)N2CCCc3ccccc32)c1	-4	-5	1.4	4	1.0	2.1%
O=C(COC(=O)CCc1ccc(S(=O)(=O)N2CCOCC2)cc1)Nc1ccccc1[N+](=O)[O-]	-16	-28	0.9	-6	-0.2	1.8%
O=S(=O)(Nc1ncccn1)c1ccc(F)cc1	-2	-7	0.6	-1	3.5	-0.2%
Cn1ccnc1C(=O)c1cc(SCC(=O)N2CCOCC2)nc2ccccc12	3	17	0.0	-13	-7.7	0.2%
COc1ccc(C(=O)C(CCC(CNC(C)(C)C)C(=O)c2ccc(OC)cc2)CNC(C)(C)C)cc1 (stereo not given)	-11	14	0.8	-15	-6.3	-1.4%
CC1CN(C(=O)c2cccc(S(=O)(=O)NCc3ccccc3)c2)CC(C)O1 (stereo not given)	·	-1	-0.8	6	-1.6	4.4%
CSc1nsc(SCC(=O)N2CCN(c3ccccc3)CC2)n1	-1	-6	1.6	45	-2.6	0.2%
CC(C)(C)OC(=O)N1CCC(c2c(C(=O)NCCN3CCc4ccccc4C3)cnn2-c2ccc(F)cc2F)CC1	·	·	1.9	-6	·	-1.8%
Cc1nn(CCCC(=O)NCCc2ccc(Cl)cc2)c(=O)c2nn(-c3ccccc3)c(C)c12	1	7	1.2&1.4	-14&-2	4.7	0.6%&0.9%
COc1cc(NC(=O)c2ccc(-c3cccc([N+](=O)[O-])c3)o2)ccc1NC(=O)C(C)C	-2	-1	1.7	-7	2.8	4.8%
COc1cccc(CN2CCNC(=O)C2CC(=O)N(C)C2CCCCC2)c1 (stereo not given)	2	4	2.2	14	1.7	0.9%
CCOC(=O)N1CCN(C(=O)Nc2ccccc2)CC1	5	25	-0.6	14	-2.0	1.9%
O=C(Cc1cccs1)N1CCN(S(=O)(=O)c2cc(Cl)ccc2Cl)CC1	-11	6	-0.9	-7	-0.9	0.6%

5 of the compounds above, in CSV form:
structure,CtBP-E1A inh,Six1-Eya2 blk,TRPML1 ag,TRPML1 inh,D2 ag,PINK1 modulator
COc1ccc(C(=O)C(CCC(CNC(C)(C)C)C(=O)c2ccc(OC)cc2)CNC(C)(C)C)cc1 (stereo not given),-11,14,0.8,-15,-6.3,-1.4%
COc1ccc(N2C(=O)NC3CC2(C)Oc2ccccc23)cc1OC (stereo not given),3,1,-0.6,6,1.6,8.8%
O=C(Nc1nc2c(s1)CCCC2)c1cccc(S(=O)(=O)N2CCCc3ccccc32)c1,-4,-5,1.4,4,1.0,2.1%
O=C(c1ccc(N2C(=O)CCC2=O)cc1)N1CCOCC1,10,7,0.9,-9,-1.4,·
Cn1nc(C(=O)NCC2CCCO2)c2ccccc2c1=O (stereo not given),41,0,0.1,-7,-0.1,-1.3%[38.3 µM]
